# Yeast UUG start = alters start codon recognition fidelity in yeast; S. cerevisiae UUG-firefly luciferase reporter, luminescence/redox ratio; activity score, % at 18.7 µM; hit rate 0.13% among 350,000; AID 602363;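 active = replicate mean at a twofold rise or more, about +100% in these data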;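 also: firefly luciferase made from a UUG start codon reports start codon fidelity; reporter light over untreated wells divided by growth signal over untreated wells; some hits fall short of that in this replicate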
# Active calls of the source: *.
# Sample of the layout:
SMILES,Yeast UUG start
COc1cccc(-c2ccc3c(c2)[C@H]2[C@H](CCN2S(=O)(=O)c2ccccc2F)[C@@H](CO)N3)c1,-22.1
CCC(=O)N1CCCCN2[C@H](CO)[C@@H](c3ccc(C#Cc4ccccc4)cc3)[C@H]2C1,-11.8

# Results (from the top)
SMILES,Yeast UUG start
COc1cccc(-c2ccc3c(c2)[C@H]2[C@H](CCN2S(=O)(=O)c2ccccc2F)[C@@H](CO)N3)c1,-22.1
CCC(=O)N1CCCCN2[C@H](CO)[C@@H](c3ccc(C#Cc4ccccc4)cc3)[C@H]2C1,-11.8
COc1cccc(S(=O)(=O)N2CCCCN3[C@@H](CO)[C@H](c4ccc(C#CC5CC5)cc4)[C@@H]3C2)c1,9.4
O=C(C1CCCCC1)N1[C@@H](CO)[C@@H]2c3ccccc3N(S(=O)(=O)c3ccccc3)C[C@@H]21,20.9
O=C(Nc1ccc(F)cc1)N1CCCCN2[C@H](CO)[C@@H](c3ccc(C#CC4CC4)cc3)[C@H]2C1,-8.6
CO[C@H]1CN(C)C(=O)c2cc(NS(=O)(=O)c3ccccc3C)ccc2OC[C@@H](C)NC[C@@H]1C,-1.0
Cc1noc(C)c1NC(=O)Nc1ccc2c(c1)C(=O)N([C@@H](C)CO)C[C@H](C)[C@H](CN(C)C(=O)Nc1cccc3ccccc13)O2,-38.4
C[C@H]1CN([C@@H](C)CO)C(=O)c2cc(NC(=O)Nc3cccc4ccccc34)ccc2O[C@H]1CN(C)CC1CCCCC1,10.0
CN(C)C(=O)c1cccc(-c2ccc3c(c2)[C@H]2[C@H](CCN2C(=O)c2ccc4c(c2)OCO4)[C@@H](CO)N3)c1,-2.1
C[C@@H]1CN([C@H](C)CO)C(=O)c2cccc(NC(=O)Nc3ccc(C(F)(F)F)cc3)c2O[C@@H]1CN(C)CC1CCCCC1,-1.7
CO[C@@H]1CN(C)C(=O)c2ccc(NC(=O)c3cc(C)on3)cc2OC[C@H](C)N(C(=O)C2CC2)C[C@@H]1C,-3.1
O=C(c1ccc(F)cc1)N1C[C@H]2[C@@H](c3ccccc31)[C@@H](CO)N2C(=O)c1ccccc1,15.0
O=C(c1ccccc1)N1CC[C@@H]2[C@H]1c1cc(C#Cc3cccc(F)c3)ccc1N[C@@H]2CO,-16.6
O=C(NCC1CC1)[C@H]1[C@H](CO)[C@H]2Cn3c(cccc3=O)[C@H]2N1C(=O)CC1CC1,1.3
C[C@H]1CN([C@@H](C)CO)C(=O)c2cccc(NC(=O)c3cnccn3)c2O[C@H]1CN(C)C,-7.8
C[C@@H]1CN([C@@H](C)CO)C(=O)c2cc(NS(C)(=O)=O)ccc2O[C@H]1CN(C)C(=O)Nc1ccccc1,-16.0
C[C@@H]1CN([C@H](C)CO)C(=O)c2ccccc2-c2ccccc2CO[C@@H]1CN(C)Cc1ccc(O)cc1,-14.2
CC(=O)N1CC[C@H]2[C@@H]1c1cc(-c3cccc(F)c3)ccc1N(C)[C@H]2CO,6.0
C[C@H]1CN([C@@H](C)CO)C(=O)c2cc(N(C)C)ccc2O[C@@H]1CN(C)S(=O)(=O)c1ccc(Cl)cc1,1.0
CO[C@H]1CN(C)C(=O)c2cc(NC(=O)C3CCC3)ccc2OC[C@H](C)NC[C@@H]1C,-18.5
O=C(c1cccc(F)c1)N1C[C@H]2[C@@H](c3ccccc31)[C@H](CO)N2C(=O)c1ccc(F)cc1,18.1
CCC(=O)Nc1ccc2c(c1)OC[C@H](C)N(C(=O)C1CCC1)C[C@H](C)[C@H](OC)CN(C)C2=O,-0.8
O=C(Nc1ccccc1F)N1CCCCN2[C@@H](CO)[C@H](c3ccc(C#Cc4cccnc4)cc3)[C@@H]2C1,12.4
O=C(C[C@H]1CC[C@H]2[C@@H](COC[C@@H](O)CN2Cc2cccc(C(F)(F)F)c2)O1)NCCc1ccccc1,8.6
CO[C@@H]1CN(C)C(=O)c2ccc(NC(=O)C3CC3)cc2OC[C@H](C)N(C(=O)Cc2ccccn2)C[C@@H]1C,14.3
CN1CCCCN2[C@H](C1)[C@H](c1ccc(-c3ccccc3)cc1)[C@@H]2CO,7.0
C[C@@H]1CN([C@H](C)CO)C(=O)c2cc(NS(=O)(=O)c3cccs3)ccc2O[C@H]1CN(C)S(C)(=O)=O,-8.2
CC(=O)N1CCCCN2[C@H](C1)[C@H](c1ccc(C#Cc3ccccc3F)cc1)[C@@H]2CO,14.4
C[C@H](CO)N1C[C@H](C)[C@H](CN(C)Cc2ccc(-c3ccccc3)cc2)Oc2c(NC(=O)NC3CCCCC3)cccc2C1=O,16.7
COc1ccc(C(=O)Nc2ccc3c(c2)C(=O)N(C)C[C@@H](OC)[C@@H](C)CN(C(C)=O)[C@@H](C)CO3)cc1,3.4
C[C@@H]1CN([C@@H](C)CO)C(=O)c2cccc(NC(=O)NC3CCCCC3)c2O[C@H]1CN(C)S(=O)(=O)c1cccs1,-2.9
CN(C)CC(=O)N1CC[C@@H]2[C@H]1c1cc(Br)ccc1N(C)[C@H]2CO,-9.8
Cc1ccc(S(=O)(=O)Nc2ccc3c(c2)C(=O)N([C@@H](C)CO)C[C@H](C)[C@H](CN(C)C(=O)Nc2ccc(F)cc2)O3)cc1,9.6
C[C@H](NC(=O)[C@@H]1[C@@H](CO)[C@@H]2Cn3c(ccc(-c4ccccc4)c3=O)[C@@H]2N1C)c1ccccc1,-2.5
C[C@@H]1CN([C@H](C)CO)C(=O)c2cccc(NS(=O)(=O)c3ccccc3)c2O[C@@H]1CN(C)Cc1ccc(-c2ccccc2)cc1,29.5
O=C(C1CC1)N1CCCCN2[C@@H](CO)[C@H](c3ccc(-c4cccc(F)c4)cc3)[C@@H]2C1,5.3
CC1C=NC(S(=O)(=O)N2CC[C@H]3[C@@H](CO)N(C)c4ccc(-c5ccccc5F)cc4[C@H]32)=N1 (stereo not given in full),-2.3
Cc1ccc(S(=O)(=O)N2C[C@H](O)COC[C@H]3O[C@@H](CC(=O)NCC4CCCCC4)CC[C@@H]32)cc1,12.5
CN(C)CC#Cc1ccc([C@H]2[C@@H](CO)N3CCCCN(CC4CCOCC4)C[C@@H]23)cc1,15.7
C/C=C/c1ccc([C@@H]2[C@@H](CNC(=O)c3ccncc3)N(C(C)=O)[C@H]2CO)cc1,-13.1
COc1ccc(NC(=O)Nc2ccc3c(c2)[C@H]2C[C@@H](CC(=O)N4CCCCC4)O[C@@H](CO)[C@H]2O3)cc1,0.4
O=C(Nc1ccccc1F)N1CCCCN2[C@H](CO)[C@H](c3ccc(/C=C/c4ccccc4)cc3)[C@H]2C1,4.0
O=C(Nc1cccc(Cl)c1)N1C[C@@H]2[C@H](c3ccccc31)[C@H](CO)N2C(=O)C1CC1,-1.2
C[C@H]1CN([C@@H](C)CO)C(=O)Cc2cc(NC(=O)Nc3ccc(F)cc3)ccc2O[C@@H]1CN(C)Cc1ccc2c(c1)OCO2,-2.1
Cc1noc(C)c1S(=O)(=O)Nc1ccc2c(c1)C(=O)N([C@H](C)CO)C[C@@H](C)[C@H](CN(C)C(=O)Nc1cccc3ccccc13)O2,-11.1
C[C@H]1CN([C@@H](C)CO)C(=O)CCCn2nncc2CO[C@H]1CN(C)C(=O)Nc1ccc(C(C)(C)C)cc1,-3.1
C[C@H]1CN([C@@H](C)CO)C(=O)c2cc(NC(=O)NC3CCCCC3)ccc2O[C@@H]1CN(C)S(C)(=O)=O,0.7
C/C=C/c1ccc([C@H]2[C@H](CO)N(C(C)=O)[C@H]2CN(C)C(=O)CN(C)C)cc1,3.1
CO[C@H]1CN(C)C(=O)c2cc(NC(=O)c3ccc4c(c3)OCO4)ccc2OC[C@@H](C)N(CCC(F)(F)F)C[C@H]1C,38.2
C[C@@H]1CN([C@@H](C)CO)C(=O)c2cc(NC(=O)CCCN(C)C)ccc2O[C@H]1CN(C)S(=O)(=O)c1cccs1,22.7
CCNC(=O)[C@H]1[C@H](CO)[C@H]2Cn3c(ccc(C4=CCCC4)c3=O)[C@H]2N1C(=O)CC1CC1,16.7
C[C@H](CO)N1C[C@H](C)[C@@H](CN(C)C(=O)c2ccccc2)OCc2ccccc2-c2c(n(C)c3ccccc23)C1=O,3.2
O=C(c1cccc(F)c1)N1CCCCN2[C@@H](CO)[C@@H](c3ccc(-c4cccnc4)cc3)[C@@H]2C1,-24.3
C[C@H](CO)N1C[C@H](C)[C@H](CN(C)C(=O)NC2CCCCC2)Oc2ccc(NC(=O)CCCN(C)C)cc2CC1=O,-9.9
Cc1ccc(S(=O)(=O)N(C)C[C@@H]2Oc3c(NC(=O)Nc4cccc5ccccc45)cccc3C(=O)N([C@H](C)CO)C[C@H]2C)cc1,2.1
O=C(Cc1ccccc1)N1C[C@H]2[C@@H](c3ccccc31)[C@H](CO)N2C(=O)C1CCCC1,-2.3
CO[C@H]1CN(C)C(=O)c2cc(NS(C)(=O)=O)ccc2OC[C@H](C)N(C(=O)C2CCCCC2)C[C@@H]1C,-0.8
COc1ccc(S(=O)(=O)N(C)C[C@H]2Oc3ccc(NC(=O)Nc4c(C)noc4C)cc3C(=O)N([C@@H](C)CO)C[C@H]2C)cc1,-1.3
CO[C@@H]1CN(C)C(=O)c2ccc(NC(=O)c3cnccn3)cc2OC[C@@H](C)N(C(=O)c2cnccn2)C[C@H]1C,0.7
O=C(C1CCCC1)N1CCCCN2[C@H](C1)[C@@H](c1ccc(-c3cccc(F)c3)cc1)[C@@H]2CO,0.6

# Sorted by the number under Yeast UUG start (low to high): some entries from above.
SMILES,Yeast UUG start
CO[C@H]1CN(C)C(=O)c2cc(NC(=O)C3CCC3)ccc2OC[C@H](C)NC[C@@H]1C,-18.5
CO[C@H]1CN(C)C(=O)c2cc(NS(=O)(=O)c3ccccc3C)ccc2OC[C@@H](C)NC[C@@H]1C,-1.0
COc1ccc(NC(=O)Nc2ccc3c(c2)[C@H]2C[C@@H](CC(=O)N4CCCCC4)O[C@@H](CO)[C@H]2O3)cc1,0.4
O=C(NCC1CC1)[C@H]1[C@H](CO)[C@H]2Cn3c(cccc3=O)[C@H]2N1C(=O)CC1CC1,1.3

# The results go on.
SMILES,Yeast UUG start
Cc1cc(C(=O)Nc2cccc3c2O[C@H](CN(C)S(=O)(=O)c2cn(C)cn2)[C@@H](C)CN([C@H](C)CO)C3=O)n(C)n1,1.5
CN(C)CC#Cc1ccc([C@@H]2[C@@H](CO)N3CCCCN(C(=O)c4ccc5c(c4)OCO5)C[C@H]23)cc1,5.5
COc1cccc(-c2ccc([C@H]3[C@@H](CO)N4CCCCN(S(=O)(=O)c5cn(C)cn5)C[C@@H]34)cc2)c1,0.0
O=C(C[C@H]1CC[C@H]2[C@@H](COC[C@H](O)CN2Cc2ccc(Oc3ccccc3)cc2)O1)N1CCCCC1,7.0
Cc1noc(C)c1NC(=O)Nc1cccc2c1O[C@H](CN(C)S(=O)(=O)c1cn(C)cn1)[C@H](C)CN([C@@H](C)CO)C2=O,7.5
C[C@H](CO)N1C[C@H](C)[C@H](CN(C)C(=O)Nc2ccc3c(c2)OCO3)Oc2c(NC(=O)c3ccncc3)cccc2C1=O,-15.2
COc1cccc(C(=O)Nc2ccc3c(c2)OC[C@@H](C)N(CCc2ccccc2)C[C@H](C)[C@@H](OC)CN(C)C3=O)c1,-0.1
CN1c2ccc(Br)cc2[C@H]2[C@H](CCN2S(=O)(=O)c2ccc(F)cc2)[C@@H]1CO,13.9
CCS(=O)(=O)Nc1ccc2c(c1)C(=O)N(C)C[C@@H](OC)[C@@H](C)CN(CC1CCCCC1)[C@@H](C)CO2,-4.0
CC(C)NC(=O)Nc1ccc2c(c1)C(=O)N([C@@H](C)CO)C[C@H](C)[C@H](CN(C)Cc1ccc(Oc3ccccc3)cc1)O2,-5.5
C[C@@H]1CN([C@@H](C)CO)C(=O)c2cccc(NC(=O)Nc3ccc(F)cc3)c2O[C@@H]1CN(C)S(=O)(=O)c1ccc(Cl)cc1,33.1
C[C@H](CO)N1C[C@H](C)[C@@H](CN(C)Cc2ccc(-c3ccccc3)cc2)Oc2ccc(NC(=O)C3CCCCC3)cc2C1=O,-9.0
CO[C@H]1CN(C)C(=O)c2cc(NC(=O)c3cc(C)on3)ccc2OC[C@H](C)N(C(=O)C2CC2)C[C@H]1C,7.5
COCC#Cc1ccc([C@H]2[C@@H](CO)N3CCCCN(Cc4cncnc4)C[C@H]23)cc1,-9.1
COc1ccc(NC(=O)N2C[C@@H](O)COC[C@H]3O[C@H](CC(=O)NCc4ccncn4)CC[C@@H]32)cc1,-13.1
COC(=O)N(C)C[C@H]1OCc2ccccc2-c2ccccc2C(=O)N([C@@H](C)CO)C[C@H]1C,-1.9
CC(=O)N1[C@H](CN(C)S(=O)(=O)c2ccccc2)[C@H](c2ccccc2)[C@@H]1CO,-3.2
COc1ccccc1C#Cc1ccc([C@H]2[C@@H](CO)N3CCCCN(C(=O)C4CC4)C[C@H]23)cc1,33.8
COc1ccc(CNC(=O)C[C@H]2C[C@@H]3c4cc(NS(C)(=O)=O)ccc4O[C@@H]3[C@H](CO)O2)cc1,-7.4
C[C@@H]1CN([C@@H](C)CO)C(=O)c2cccc(NC(=O)Nc3ccc4c(c3)OCO4)c2O[C@H]1CN(C)S(=O)(=O)c1cccs1,5.9
CO[C@@H]1CN(C)C(=O)c2cc(NC(=O)C3CC3)ccc2OC[C@@H](C)N(Cc2cc(F)ccc2F)C[C@@H]1C,0.4
O=C(C[C@@H]1CC[C@@H]2[C@H](COC[C@@H](O)CN2C(=O)Nc2ccc(C(F)(F)F)cc2)O1)NCCc1ccncc1,-11.0
CO[C@H]1CN(C)C(=O)c2ccc(NS(=O)(=O)c3ccc(C)cc3)cc2OC[C@@H](C)NC[C@H]1C,10.0
CN(C)CC#Cc1ccc([C@H]2[C@H](CO)N3CCCCN(C(=O)Nc4ccccc4F)C[C@@H]23)cc1,8.2
O=C(c1ccncc1)N1CCCCN2[C@H](CO)[C@@H](c3ccc(C#Cc4ccccn4)cc3)[C@@H]2C1,3.6

# Screening results from PubChem.

# A portion of the library; rates above refer to the full screens.
